# High-throughput results from PubChem.
# Menin-MLL FL inh: qHTS Assay for Inhibitors Targeting the Menin-MLL Interaction in MLL Related Leukemias: Competition With Fluorescein Labeled MLL-derived Peptide. Fluorescence polarization, fluorescein-MLL peptide displacement from menin. FP activity change, % at 61.4 µM. 290,000 tested, under 10 active. AID 1766, 2009; inconclusive = falling polarisation curve, or a change in total fluorescence; inactive = total fluorescence flat and polarisation flat or rising; no compound was filed as active; the % refers to the polarisation; negative = inhibition;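 further: % of control where 0% means no effect; inhibitors lower the polarisation; unlabelled MLL peptide was the positive control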
# ClpP mod: qHTS Assay for Activators of ClpP | ATP-dependent Clp protease proteolytic subunit (Bacillus subtilis (strain 168)), P80244 | purified B. subtilis ClpP, FRET peptide cleavage, 20 min | Potency, µM (top dose mostly 57.5 µM), inactives show at the top dose activity change, negative = active | 340,000 compounds, 1.9% hits | AID 651965, 2013; active = well fitted falling curve with a large enough effect; inconclusive = small, poorly fitted or top-dose-only effect; inactive = no such curve, though single readings can be large or run the other way; further: potency means the concentration at half of the fitted maximal effect; the source files actives as falling curves though it sought activators and does not explain the sign; nearly all actives have a fitted effect of over 65% in size; many hits overshoot -100%
# Target sequence (P80244 whole entry, looked up): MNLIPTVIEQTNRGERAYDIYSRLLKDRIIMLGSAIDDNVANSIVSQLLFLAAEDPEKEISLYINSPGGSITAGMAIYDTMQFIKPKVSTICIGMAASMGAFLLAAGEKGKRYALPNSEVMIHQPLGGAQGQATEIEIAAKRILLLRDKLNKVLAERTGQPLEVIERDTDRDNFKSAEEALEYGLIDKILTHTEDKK
#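 ClpP 10 microg/mL final, pH 8 Tris/KCl buffer with BSA, glycerol, Tween-20; compound pinned in; FRET-FV substrate; RT 20 min; Ex320/Em430; ΔFRET vs ADEP 5.8 microM, DMSO, no enzyme.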
# TRPML1 ag: qHTS for Agonists of the Human Mucolipin Transient Receptor Potential 1 (TRPML1); TRPML1-expressing cells, Ca2+ dye fluorescence, FDSS; host cell line not named in the record; reference of the full effect not given here; activation, % (concentration not given with the values); 410,000 compounds, 0.12% hits; in the data active = activation above about 50%; inconclusive = about 30% to 50%; inactive = below about 30%; further: 0% is about no effect; the text of the record puts the active cut at 80%
# Target sequence (Q9GZU1 whole entry, looked up): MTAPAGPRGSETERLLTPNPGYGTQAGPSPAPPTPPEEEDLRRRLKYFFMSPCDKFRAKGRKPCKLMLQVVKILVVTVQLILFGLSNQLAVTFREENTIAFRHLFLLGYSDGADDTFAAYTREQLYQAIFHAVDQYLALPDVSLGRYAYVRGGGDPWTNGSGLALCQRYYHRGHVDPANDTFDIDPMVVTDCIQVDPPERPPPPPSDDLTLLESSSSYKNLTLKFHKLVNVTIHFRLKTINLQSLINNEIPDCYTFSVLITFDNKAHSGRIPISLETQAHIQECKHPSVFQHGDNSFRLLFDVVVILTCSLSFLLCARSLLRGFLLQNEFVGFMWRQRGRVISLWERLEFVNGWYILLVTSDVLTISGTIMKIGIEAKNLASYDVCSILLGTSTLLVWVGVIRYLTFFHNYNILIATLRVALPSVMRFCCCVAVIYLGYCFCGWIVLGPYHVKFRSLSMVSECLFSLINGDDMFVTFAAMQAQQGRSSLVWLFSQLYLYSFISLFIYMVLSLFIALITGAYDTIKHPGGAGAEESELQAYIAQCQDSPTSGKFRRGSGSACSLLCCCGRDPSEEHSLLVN
#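 TRPML1-DL cells, Tet-induced overnight (~16 h, 37 degrees C), loaded 45-90 min at room temperature with Ca8 no-wash calcium dye plus quencher. FDSS fluorescence: 10 s baseline, compound pin-transfer, 110 s agonist read, then EC80 54-4 (4uM final) and 110 s antagonist read.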
# TRPML1 blocker: qHTS for Inhibitors of the Human Mucolipin Transient Receptor Potential 1 (TRPML1); 390,000 compounds, 0.02% hits; TRPML1-inducible cells, Ca2+ dye fluorescence, FDSS; stronger effect = lower value; inhibition of EC80 agonist-evoked calcium signal; activity change, negative = inhibition, % (concentration not given with the values); Mucolipin-1 (Homo sapiens), Q9GZU1; AID 624415, 2012; in the data active means activity change below about -50%; inconclusive means about -30% to -50%; inactive means above about -30%;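 further: stimulus is agonist 54-4 at its EC80 concentration; on the % scale 0 is the no-effect control and ±100 the full control effect; the text of the record puts the active cut at -80%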
#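 Tet-induced TRPML1-DL cells loaded with Ca8 no-wash calcium dye were read kinetically on FDSS. Compound addition was followed by EC80 agonist 54-4 (4 uM final); inhibition was read over 110 s.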
# gsp agonist: qHTS for Agonist of gsp, the Etiologic Mutation Responsible for Fibrous Dysplasia/McCune-Albright Syndrome: qHTS; gsp mutant cells, cAMP HTRF, 30 min; control for the full effect not named in the record; AID 624287, 2012; 340,000 compounds, 0.13% hits; Potency, µM (series often up to 76.9 µM), for inactives: at the top dose activation (cAMP increase), most hits filed as activators; active = well fitted activation curve with a large enough effect; inconclusive = small, poorly fitted or top-dose-only effect, or another doubt; inactive = no such curve, though single readings can be large or run the other way; cell line not stated here;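 further: phosphodiesterase inhibitor Ro 20-1724 added with compounds to block cAMP breakdown; potency means the concentration at half of the fitted maximal effect; nearly all actives have a fitted effect of over 60% in size; about a fifth of the inactives were tested at one dose only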
#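 Cells in DMEM/10% FBS with G418 were pretreated with compounds in DMSO plus […] (300 uM stock) for 30 min at 37C. cAMP was measured by HTRF (cAMP-d2 plus anti-cAMP antibody-K) after 30 min at room temperature.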
# gsp antagonist: qHTS for Antagonists of gsp, the Etiologic Mutation Responsible for Fibrous Dysplasia/McCune-Albright Syndrome: qHTS | Potency, µM (series often up to 76.9 µM), without a hit: top-dose activity change, negative = inhibition, hits mostly inhibitors | gsp-mutant cells, cAMP HTRF, 30 min; control for the full effect not named in the record | 340,000 compounds, 0.4% hits; active = falling curve of any shape with a large fitted effect; inconclusive = falling curve, mostly with a smaller effect; inactive = flat or rising curve; cell line not stated here;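 further: intracellular cAMP measured with PDE inhibitor Ro 20-1724 present during compound exposure; potency means the concentration at half of the fitted maximal effect; on the % scale 0 is the no-effect control and ±100 the full control effect; nearly all actives have a fitted effect of over 65% in size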
#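 Cells in G418 medium, seeded 16-24 h, 37C; buffer exchange to DPBS + 1 mM CaCl2, 0.5 mM MgCl2, 0.05% BSA; cpds in DMSO + […] (300 uM stock), 30 min 37C; HTRF cAMP detection.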
# An asterisk follows results filed as active; ? = inconclusive; nt = no result given; [ ] = remark or other dose.
SMILES,Menin-MLL FL inh,ClpP mod,TRPML1 ag,TRPML1 blocker,gsp agonist,gsp antagonist
O=C1COc2ccc(C(=O)COC(=O)/C=C/c3ccc(Br)o3)cc2N1,nt,-3.3%,0.1,11,8%,-2%
Cc1cc(C)c2c(=O)cc(C(=O)Nc3ccc(S(=O)(=O)Nc4nc(C)cc(C)n4)cc3)oc2c1,nt,1.9%,1.7,5,nt,nt
CCc1nc(Nc2cccc(O)c2)c2oc3ccccc3c2n1,-1.6,-11%,1.3,18,22%,-26%
Cc1c(Cl)cccc1NC(=O)CSc1cc(-c2ccccc2)ncn1,nt,-0.2%,1.6,3,nt,nt
Cc1ccc(S(=O)(=O)c2cn(Cc3ccc(F)cc3)c3cc4c(cc3c2=O)OCO4)cc1,1.6,-2.3%,1.0,23,-3%,-1%
O=C(O)C1CCCN1S(=O)(=O)c1cccc2nsnc12 (centres undefined),1.8,nt,-0.1,-26,1%[15.4 µM],-4%
Cc1cccc(Cl)c1NC(=S)NN,-0.6,nt,0.7,12,-35%[15.4 µM],-3%
Cc1ccc(OCc2nnc(SCC(=O)Nc3ccccc3C(C)C)o2)cc1,nt,1.8%,1.4,9,nt,nt
Cc1cc(F)ccc1-n1nnc(C(N)=O)c1C,nt,-2.7%,-0.2,10,nt,nt
Cc1cccc(NC(=O)CSc2cn[nH]n2)c1,-4.7,nt,0.2,-16,21%,6%
Cc1oc(-c2ccccc2)nc1Cn1c(SCc2cccc(C(F)(F)F)c2)nc2cccnc21,nt,5.0%,-0.1,18,nt,nt
O=C(c1cc(C2CCCCN2S(=O)(=O)c2cccs2)on1)N1CCOCC1 (centres undefined),nt,-0.7%,-0.4,-2,nt,nt
CN(C)[C@@H](CO)c1nnc([C@H](CC(=O)O)NC(=O)C2CCNCC2)o1,0.8,0.3%,-0.2,-6,nt,0%
CC1CCCC(C)N1C(=O)CSc1nnnn1-c1cccc2c1CCCC2 (centres undefined),-0.5,0.5%,0.7,45,-1%,-25%
CC(=O)NCCc1ccc(S(=O)(=O)N2CCCC2)cc1,3.5,0.2%,-0.1,2,5%,4%
COc1ccc(Nc2oc(-c3ccc(OC)cc3)nc2C#N)cc1,-0.8,nt,1.7,23,2%[15.4 µM],-5%
COc1cccc(Cl)c1NC(=O)N1CCc2c([nH]c3ccccc23)C1C(F)(F)F (centres undefined),1.9,nt,1.6,14,?,-15%
Cc1ccc(Nc2ncnc3c2cnn3-c2ccccc2)c(C)c1,nt,-2.4%,2.2,-7,nt,nt
CC1CCCN(C(=O)COC(=O)CNS(=O)(=O)c2ccc3ccccc3c2)C1 (centres undefined),nt,-2.6%,-1.0,-3,-10%,-14%
CCOC(=O)N1C(=O)[C@@](c2ccc(Cl)cc2)(C(C)C)N1C(=O)OCC,-0.5,1.5%,-0.6,26,nt,23%
C[C@@H]1ON(C)[C@H]2C[C@H]3c4cc(N5CCOCC5)ccc4CCN3C(=O)[C@@H]12,nt,-4.6%,1.1,18,nt,3%
CCN(CC)S(=O)(=O)c1ccc(/C=C/C(=O)Nc2ccc(Br)cc2F)cc1,-1.6,-5.8%,-0.2,11,?,-9%
O=C(Nc1nnc(SCC(=O)N2CCCc3ccccc32)s1)c1cccc2ccccc12,?,-11%,-0.6,-17,2%,-2%
CN1CCN(C(=S)NC(CC(=O)c2ccccc2)c2ccccc2)CC1 (centres undefined),5.2,nt,3.3,9,7%[15.4 µM],6%
CC1(C)CC(NC(=O)C2CCN(S(=O)(=O)c3ccc(Cl)c(C(F)(F)F)c3)CC2)CC(C)(C)N1,nt,2.1%,-0.2,5,0%,12%
COc1ccccc1NC(=O)Cn1c(SCC(=O)Nc2ccc(F)cc2)nc2ccccc21,nt,1.0%,0.4,-5,nt,nt
O=C(Nc1cccc(Cl)c1)Nc1ccccc1C(=O)NCc1ccco1,5.1,-13%,2.1,-18,-15%,-17%
Cc1ccc(S(=O)(=O)CCC(=O)OCc2nnc(-c3ccccc3Br)o2)cc1,nt,-3.6%,0.4,15,?,-4%
Cn1c(=O)c2sccc2n2c(CCC(=O)NCc3ccc(F)cc3)nnc12,nt,-1.7%,0.8,-11,nt,nt
CSc1cccc(NC(=O)C(c2ccccc2)N2Cc3ccccc3C2=O)c1 (centres undefined),nt,-21%,1.1,4,nt,nt
CC(=O)c1ccc(NC(=O)c2c3c(nc4ccccc24)C(=O)N(C2CCCCC2)C3)cc1,nt,-3.0%,0.9,11,nt,nt
COCCN1Cc2cccc(C(=O)NCc3ccccc3OC)c2C1=O,-0.6,1.8%,-0.4,12,6%,5%
CCNC(=O)Nn1c(C)nnc1C,4.4,-2.8%,0.7,7,-18%,6%
CCOc1ccc(NC(=O)CCN2CCN(c3ccccc3F)CC2)cc1,9.8,0.9%,0.1,4,-34%[inhibitor],14%
CC(=O)Oc1ccc(C(=O)Nc2cccc(C(=O)c3ccc(C)c(C)c3)c2)cc1,1.4,-2.3%,2.0,1,-21%,?
O=C(Cc1ccc(Cl)cc1)NC1CC(=O)N(c2ccc3c(c2)OCCO3)C1 (centres undefined),nt,0.1%,-0.9,-19,nt,nt

# By substructure, the entries above containing a furan ring, fused or not
SMILES,Menin-MLL FL inh,ClpP mod,TRPML1 ag,TRPML1 blocker,gsp agonist,gsp antagonist
O=C1COc2ccc(C(=O)COC(=O)/C=C/c3ccc(Br)o3)cc2N1,nt,-3.3%,0.1,11,8%,-2%
CCc1nc(Nc2cccc(O)c2)c2oc3ccccc3c2n1,-1.6,-11%,1.3,18,22%,-26%
O=C(Nc1cccc(Cl)c1)Nc1ccccc1C(=O)NCc1ccco1,5.1,-13%,2.1,-18,-15%,-17%

# Following part
SMILES,Menin-MLL FL inh,ClpP mod,TRPML1 ag,TRPML1 blocker,gsp agonist,gsp antagonist
COc1ccc(/C=N/NC(=O)c2cccnc2)cc1CSc1nc2ccccc2s1,-2.6,-20%,-0.9,19,?,-3%
CC(=O)Nc1c(C)cc(OCC(=O)O)cc1C,-4.4,nt,0.4,8,-7%[15.4 µM],13%
CN(Cc1ccccc1)C(=O)CSc1nc2ccccc2c(=O)n1Cc1ccco1,1.7,1.5%,2.9,29,-63%,-3%
COc1cc(C)c(Cl)cc1S(=O)(=O)n1ccnc1,-2.5,nt,0.9,-12,?,0%
CCC(C)c1ccccc1N1CC(C(=O)Nc2ccc(N3CCOCC3)cc2)CC1=O (centres undefined),nt,-1.1%,0.0,-10,-16%,-4%
O=C(COC(=O)c1ccc(F)cc1Cl)Nc1cccc(S(=O)(=O)N2CCOCC2)c1,nt,-1.5%,0.5,2,-26%,-6%
Cc1ccc2occ(/C=N/NC(=O)c3ccncc3)c(=O)c2c1,2.1,47%,-0.5,-17,0%,13%
COc1ccc(C)cc1-n1nnnc1SCC(=O)NNC(=O)c1ccc([N+](=O)[O-])cc1,1.7,nt,0.7,-9,18%[15.4 µM],-3%
CC(=O)c1cc2c(cc1NC(=O)c1cnn(-c3ccc(C)cc3)c1-n1cccc1)OCO2,nt,-15%,0.0,19,nt,nt
COc1ccc2ccccc2c1CNC(C)CCc1ccccc1 (centres undefined),2.6,nt,-0.4,7,-65%[inhibitor],-15%
Cc1ccccc1C(=O)N1CCC(C(=O)Nc2ccc3c(c2)OCCO3)CC1,2.0,0.2%,2.5,6,11%,-6%
CC(=O)N1CCC(N(Cc2ccc(C)o2)C(=O)Nc2cccc(C(F)(F)F)c2)CC1,nt,0.5%,-0.9,-3,nt,nt
COCCCn1c(C(=O)Nc2ccc3c(c2)OCO3)cc2c(=O)n3cccc(C)c3nc21,nt,-3.0%,0.0,-7,-34%[inhibitor],nt
CCOC(=O)c1c(C)c(C(=O)NCC2CCCO2)c(C)n1C (centres undefined),2.8,-2.3%,0.4,-1,13%,7%
NS(=O)(=O)c1ccc(CCNC(=O)CN2C(=O)NC(c3ccccc3)(c3ccccc3)C2=O)cc1,nt,0.2%,0.4,-6,-11%[15.4 µM],7%
CCOC(=O)C1CCCN(C(=O)C2CCN(S(=O)(=O)CC)CC2)C1 (centres undefined),-0.4,-0.9%,0.3,-1,-14%,12%
CC(C)c1nnc(SCC(=O)NCc2ccco2)n1C,-2.4,-4.9%,1.2,6,6%,7%
Cc1c(C(=O)Nc2ccc(-n3c(C)nc4ccccc4c3=O)cc2)cccc1[N+](=O)[O-],nt,-1.3%,-0.4,16,nt,nt
Cc1ccc(/C=N\NC(=O)C2CC(=O)N(c3ccccc3)C2)o1 (centres undefined),-0.6,nt,0.3,-2,9%[15.4 µM],4%
COC(=O)C1=C(N)Oc2cc(C)n(C)c(=O)c2C1c1ccc(Cl)c(Cl)c1 (centres undefined),2.6,0.9%,2.8,8,-2%,1%
COc1cc(C2NC(=O)c3c(sc4c3CCN(C)C4)N2)ccc1OC(=O)c1ccccc1 (centres undefined),nt,?,8.4,-17,nt,nt
CC1(c2cccc(Br)c2)NC(=O)N(CC(=O)N2CCN(C(=O)c3ccco3)CC2)C1=O (centres undefined),nt,0.7%,-0.2,-4,0%,3%
COc1cccc(/C=C2\SC(=S)N(CCCC(=O)N3CCCCC3CCO)C2=O)c1 (centres undefined),nt,1.6%,0.9,-3,3%,?
O=c1[nH]c(CSc2nnc(Cc3ccccc3)o2)nc2ccccc12,-1.6,nt,0.7,-17,-20%[15.4 µM],-4%
CC(=O)c1ccc(-c2cccs2)s1,0.5,3.8%,-0.5,0,-6%,1%
CC1CCN(c2ccc3nnc(CCC(=O)Nc4cccc(F)c4)n3n2)CC1,2.3,-2.0%,-1.0,8,-1%,12%
Cc1ccc(-n2ncc3c(=O)n(CC(=O)Nc4cccc(Cl)c4)cnc32)cc1C,1.8,?,0.4,0,19%,2%
COCCCNC(=O)CCCCn1c(=O)c2ccccc2n(CC(=O)Nc2ccc(C)cc2C)c1=O,nt,-2.4%,0.9,20,nt,nt
CN(C)S(=O)(=O)Oc1cccc(C(=O)Nc2ccccc2Cl)c1,-2.9,-0.4%,1.1,19,8%,-14%
COc1ccc(CNC(=O)CCSCc2ccc(C)cc2)cc1,-1.5,?,1.1,3,9%[15.4 µM],-4%
Cc1ccc(NC(=O)CSc2ccccn2)cc1S(=O)(=O)N1CCOCC1,0.6,nt,-0.6,-7,?,-4%
